PABP polyA inh: PABP-poly(A) binding inhibition; actives 1% (n = 290,000); P11940; inhibition, % at 35 µM; PABP-poly(A) RNA binding, fluorescence polarization;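 active means 50% or more with normal probe brightness, or confirmed in later tests; inconclusive means above 50% with abnormal brightness, or retests that disagree; inactive means below 50% or failed in later tests; about a fifth of its hits are not listed in these tables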;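 further: calls also rest on retests at 20 µM and on dose response follow-up; controls were probe without protein and protein plus probe with vehicle; some compounds called inactive have numbers as strong as hits; many hits fall short of the cut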
CSC inhib: cancer stem cell inhibition. cancer stem cell-like cells viability, luminescence. inhibition, % at 7.5 µM. actives 1.1% (n = 300,000). AID 2717;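 active means mean at 75% or more and at least half the replicates too; inconclusive means mean and replicates disagree; tested in HMLE shEcad cells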;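 further: 0% = median of negative and 100% = median of positive control wells; the first replicate is given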
Yeast UUG start: yeast start codon fidelity modulation. actives 0.13% (n = 350,000). S. cerevisiae UUG-firefly luciferase reporter, luminescence/redox ratio. AID 602363. activity score, % at 18.7 µM;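 active means replicate mean at a twofold rise or more, about +100% in these data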;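 further: firefly luciferase made from a UUG start codon reports start codon fidelity; reporter light over untreated wells divided by growth signal over untreated wells; some hits fall short of that in this replicate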
Env fusion inh: HIV envelope-mediated fusion inhibition. HeLa-JRFL Env/CEM21 cell fusion, luciferase. inhibition, % at 12.3 µM. actives 1.1% (n = 360,000). AID 651610;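 active means mean replicate inhibition score of at least 50 and every replicate individually at or above 50; inconclusive means only one of the two criteria met; inactive means mean below 50 and not all replicates reaching 50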;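 further: 0% = plate neutral controls and 100% = maraviroc near 300 nM; one replicate is shown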
eIF4H inh: inhibitors of RNA binding by human eIF4H. AID 2012. eIF4H fluorescence polarization binding assay. Q15056. inhibition, % at 35 µM. actives 0.94% (n = 290,000);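 active means 50% or more with normal probe brightness, or confirmed in later tests; inconclusive means above 50% with abnormal brightness, or retests that disagree; inactive means below 50% or failed in later tests; about a fifth of its hits are not listed in these tables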;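 further: calls also rest on retests at 20 µM and on dose response follow-up; 0% = protein and probe with vehicle and 100% = probe without protein; strong numbers were not always called active; many hits fall short of the cut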
Rce1 inhib: inhibitors of yeast Ras-converting enzyme; Q03530; yeast membranes, quenched prenylated peptide cleavage fluorescence; calls only; actives 0.27% (n = 290,000); AID 2563;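 active means fall in fluorescence gain of 50% or more versus controls, with final raw signal at or below 3038400; inconclusive means same 50% fall but final raw signal above 3038400; inactive means fall in fluorescence gain under 50%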;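 further: plate controls were neutral control wells for no effect and wells lacking membranes for full effect; tested at 10 µM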
Target sequence (Q03530 whole entry, looked up): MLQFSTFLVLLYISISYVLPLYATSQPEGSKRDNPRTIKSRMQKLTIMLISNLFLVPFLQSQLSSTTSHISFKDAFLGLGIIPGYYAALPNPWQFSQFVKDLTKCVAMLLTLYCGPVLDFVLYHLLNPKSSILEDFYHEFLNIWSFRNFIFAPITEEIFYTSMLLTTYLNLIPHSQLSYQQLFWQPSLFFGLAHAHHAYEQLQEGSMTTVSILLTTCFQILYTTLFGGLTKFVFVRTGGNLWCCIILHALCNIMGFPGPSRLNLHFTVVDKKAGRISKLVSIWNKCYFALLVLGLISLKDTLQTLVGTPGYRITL
MT1-MMP act inh: blocks activation of human MT1-MMP; P50281; HT1080 RFP-PRO-GFP cells, GFP/RFP ratio fluorescence, overnight; percent of plate control window, DMSO zero; GFP/RFP ratio change, % at 20 µM; actives 0.061% (n = 360,000);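 active means GFP/RFP ratio change of at least 30% with cell ATP level not reduced by more than half and red fluorescence within 50% of control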; further: strong numbers were not always called active
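system = RFP-PRO-GFP reporter HT1080 cells | dosing = 20 µM single dose, 1% DMSO | timing = overnight cell settling, then overnight compound exposure, 37 °C, 5% CO2 | read-out basis = GFP/RFP fluorescence ratio | controls = DMSO and RFP-L50D-GFP cell wells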
eIF4H inh retest: second read-out of eIF4H inh, no call of its own (marks repeat the call); inhibition, %; compound at 20 µM; confirmation average;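 mean of two retest wells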
PABP polyA inh retest: also measured in PABP polyA inh; calls as there; inhibition, %; compound at 20 µM; confirmation repeats;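 mean of two retest wells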
MT1-MMP act inh RFP: further read-out of MT1-MMP act inh, marked with its call; RFP signal change, %; measured here: RFP expression control read;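 0 = vehicle wells; hits needed this value within 50% of zero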
The depositor's hits bear a star; i = inactive; ? = inconclusive; nt = not tested or not shown. Some of the compounds tested (hit frequency here may not be typical).

SMILES	PABP polyA inh	CSC inhib	Yeast UUG start	Env fusion inh	eIF4H inh	Rce1 inhib	MT1-MMP act inh	MT1-MMP act inh RFP	others
CC(=O)Nc1cccc(-c2nc3ccc(NC(C)=O)cc3s2)c1	-12	-2	nt	-81	2	?	5	5
O=C(CN1CCC(n2nnc3cc(F)ccc32)CC1)NCCc1nc2ccccc2[nH]1	-3	-5	-22	nt	-8	i	-3	-1
Cn1ccc2c(N3CCCCCCC3)cc3c(c21)C1CCC3O1 (stereo not drawn)	nt	nt	-9	-32	nt	nt	2	-9
COc1ccc(S(=O)(=O)N2CCOCC2)cc1NC(=O)CC1CC2CCC1C2 (stereo not drawn)	nt	nt	-15	1	nt	nt	0	1
O=C(O)c1cc2c(=O)c3ccccc3oc2nc1C(F)(F)F	-3	-4	11	4	-10	i	4	-1
CCCCc1ccc(NC(=O)CSc2nnc(C)c(=O)n2N)cc1	0	8	7	nt	-1	i	3	0
CCOc1ccc(N=C2NC(=O)/C(=C/C(=O)OC)S2)cc1	1	1	-5	3	-15	i	-2	4
Cc1ccc(S(=O)(=O)N(C)c2cc(S(=O)(=O)Nc3ccncc3)c(C)cc2C)cc1	-3	-4	nt	-25	0	i	2	6
CC1=Nc2cc(C(=O)NCC3CCCO3)ccc2Sc2ccc(Br)cc21 (stereo not drawn)	-2	56	-10	12	-6	i	-9	-18
O=C(COC(=O)c1ccc(Cl)nc1)NCCc1ccc(Cl)cc1	nt	-2	-9	-4	nt	nt	-2	4
CCOC(=O)N1CCN(C(=O)c2ccc(Cl)nc2)CC1	10	5	-19	4	10	i	1	4
COc1ccc(C(=O)O)cc1NCc1ccc(C)s1	6	-19	-11	-2	-1	i	-1	-1
CCCCCCCCNc1ncnc2ccccc12	-4	43	-5	nt	-3	i	2	-23
Nc1cc(N)cc(-c2nc3ccccc3[nH]2)c1	8	-2	nt	nt	2	nt	-1	7
CCc1nnc(NC(=O)CSc2ccc(Cl)cc2)s1	3	-11	-2	2	-21	i	3	3
COCCn1c(SCC(=O)Nc2ccccc2C(F)(F)F)nc2ccccc2c1=O	-1	8	-12	-12	10	i	3	1
CC(C)CC(=O)Nc1nnc(SCC(=O)NCC2CCCO2)s1 (stereo not drawn)	-17	-2	-12	7	-8	i	2	2
CCN(CC)c1nc(N(CC)CC)[nH]c(=O)n1	nt	-4	-16	4	nt	i	-3	0
CC1CCCCC1n1c(-c2cccnc2)n[nH]c1=S (stereo not drawn)	2	-2	nt	6	-6	i	-2	0
COc1ccc(O)c(C(=O)c2cc(C#N)c(=O)n(CC3CCCO3)c2)c1 (stereo not drawn)	-2	-10	-19	nt	9	i	0	2
CCOc1ccccc1/C=C/c1onc(C)c1S(=O)(=O)N1CCC(C(=O)NC(C)(C)C)CC1	4	19	-18	11	-5	i	-6	-4
O=C(O)c1nccnc1C(=O)N1CCN(c2ccccc2)CC1	2	-16	nt	-5	12	i	1	1
COc1cc(NS(=O)(=O)c2ccc3c(c2)oc(=O)n3C)cc(OC)c1OC	-2	23	-14	-14	-7	i	-1	-18
COc1ccccc1CNC(=O)c1cc(-c2ccccc2C)n(CC2CC(c3cccc([N+](=O)[O-])c3)=NO2)n1 (stereo not drawn)	nt	4	-16	60*	nt	nt	6	-2
COC(=O)c1ccc(COC(=O)c2cc3ccccc3oc2=O)cc1	-14	-5	-12	-16	-4	i	-4	-1
CCOC(=O)C1CCCN(C(=O)Cn2cccc2C(=O)c2ccccc2)C1 (stereo not drawn)	-4	2	nt	nt	-8	i	4	8
COc1ccc(NC(=O)CN(c2c(C)cccc2C)S(C)(=O)=O)cc1	-16	-12	-18	18	8	i	1	1
Cc1oc2c(c1C(=O)NCc1ccccc1)CCCC2	4	nt	nt	nt	4	i	-1	2
O=C(NCC(c1cccs1)N1CCOCC1)c1cc([N+](=O)[O-])cc([N+](=O)[O-])c1 (stereo not drawn)	13	12	-1	13	-12	i	1	-2
COC(=O)c1cn(S(=O)(=O)c2ccccc2)c2ccccc12	3	31	14	2	5	i	-3	0
CCC(C)(C)C1CCc2[nH]nc(C(=O)O)c2C1 (stereo not drawn)	nt	-12	-22	-15	nt	nt	3	4
Cc1cc(C)n2nc(Sc3ncccc3[N+](=O)[O-])nc2n1	-2	-10	-2	-6	-9	i	-1	-2
O=[N+]([O-])c1ccc(CSc2nc3ccccc3[nH]2)cc1	72*	16	-1	-60	-5	i	3	1	eIF4H inh retest=30;PABP polyA inh retest=63*
O=C(Nc1ccccc1)c1n[nH]c(Cn2cncn2)n1	8	0	-20	-64	8	i	-34	-48
O=C(CSc1nc2nn(-c3ccccc3)c(=O)c-2c2n1CCCCC2)Nc1ccc(OC(F)F)cc1	nt	4	-4	28	nt	nt	2	-7
O=C(CSC1CC(=O)N(CCc2ccccc2)C1=O)Nc1ccc(Br)cc1 (stereo not drawn)	1	7	-10	?	14	i	13	-2
Cn1nc(C(F)(F)F)c(-c2ccc(Br)cc2)c1NC(=O)c1cccnc1	2	2	-5	2	3	i	-2	-3
COc1cccc(OC)c1C(=O)Nc1ccccc1C(=O)N1CCCC1	-17	-9	-8	-422	3	i	-1	3
O=C(CSc1nnc(COc2ccc(Cl)cc2)o1)NC1CCCCC1	nt	-15	-1	1	nt	i	2	5
O=C(NCc1ccco1)c1cc(S(=O)(=O)N2CCCCC2)ccc1Cl	nt	nt	4	7	nt	nt	-2	-1
Fc1ccc(CNC(=S)Nc2ccc(Cl)cc2Cl)cc1	-3	-6	nt	-2	-10	i	6	-5
CCOC(=O)N1CCN(C(=O)Cc2cccc3ccccc23)CC1	-3	1	nt	-8	3	i	2	2
Cc1c(C(=O)NCc2ccco2)oc2ccc(S(=O)(=O)N3CCC4(CC3)OCCO4)cc12	8	-2	-17	-48	-4	i	2	-2
Fc1ccc(-n2cc(-c3ccccc3)[n+]3c2SCC3)cc1	-4	-14	nt	-15	1	i	-9	-6
OC[C@@H]1CN(Cc2ccncc2)C[C@H](n2cnc3c(NCc4ccncc4)ncnc32)O1	nt	nt	0	-10	nt	nt	1	5
CCOC(=O)C(=Cc1ccccc1)C(=O)c1ccccc1	nt	nt	-13	-19	nt	nt	9	-15
Cc1noc(C)c1C(=O)Nc1ccccc1C(=O)NCCc1ccccc1	7	1	-12	24	-4	i	-2	-7
CCCCn1c(N)c(N(CCOC)C(=O)COC(=O)CSc2cc(C)c3ccccc3n2)c(=O)[nH]c1=O	nt	nt	nt	3	nt	i	4	0
O=C(c1ccc(N2CCN(C3CC(=O)N(Cc4cccs4)C3=O)CC2)cc1)c1cccnc1 (stereo not drawn)	-6	-4	-6	8	-6	i	-5	-21
C[C@@H](C(=O)N[C@@H](Cc1ccccc1)C(=O)O)n1nnc2ccccc2c1=O	-2	-4	-4	8	-7	i	-1	1

Next part
SMILES	PABP polyA inh	CSC inhib	Yeast UUG start	Env fusion inh	eIF4H inh	Rce1 inhib	MT1-MMP act inh	MT1-MMP act inh RFP	others
CSCCC(NS(=O)(=O)c1cccs1)C(=O)NCc1ccccc1 (stereo not drawn)	0	10	nt	13	-9	i	2	3
CCOC(=O)N1CCN(C(=S)NC(=O)C2CCCC2)CC1	5	-18	-1	2	-1	i	2	-1
COC(=O)N/N=C(C)\C=C\c1ccco1	5	-28	nt	9	29	i	0	5
CCC(C(=O)Nc1cc(Cl)ccc1OC)c1ccccc1 (stereo not drawn)	-10	-1	nt	-21	13	i	3	0
Cc1ccc(N2C(S)=C(C#N)C(=O)NC2c2cccs2)cc1 (stereo not drawn)	1	1	nt	-22	2	i	-4	7
O=c1c2ccccc2nnn1COc1cccc2ccccc12	-6	3	nt	-20	-3	i	-1	0
O=C(CSc1c[nH]c2ccccc12)N1CCCc2ccccc21	-3	14	-5	10	-3	i	-5	-6
COc1cc(/C=C2\COC/C(=C\c3cc(OC)c(OC)c(OC)c3)C2=O)cc(OC)c1OC	-2	nt	nt	110*	-1	i	-14	-29
Cc1ccc(S(=O)(=O)N(C)C)cc1NC(=S)NCc1ccco1	-5	0	-9	15	-15	i	-3	-2
COc1cc(CC(=O)Nc2ccc(S(=O)(=O)N(C)C)cc2)cc(OC)c1OC	11	2	-1	32	8	nt	-2	5
CS(=O)(=O)N1CCN(C(=O)c2cc3ccccc3oc2=O)CC1	-2	nt	nt	nt	-6	i	1	8
CCN(CC(=O)NC)S(=O)(=O)c1ccc(Br)cc1	4	1	-11	nt	2	i	-3	0
CSc1nnc(C)c(/C=C/Nc2ccc(C)cc2)n1	2	-7	-12	nt	13	i	-36	-2
CCc1ccc(-n2c(SCC(=O)NC3CCS(=O)(=O)C3)nc3ccccc3c2=O)cc1 (stereo not drawn)	nt	5	-1	nt	nt	nt	-3	0
O=C(Cn1ncc2c(=O)oc3ccccc3c21)N1CCN(C(=O)c2ccco2)CC1	8	2	-24	-29	13	i	1	1
CC(OC(=O)CC1Sc2ccccc2NC1=O)C(=O)NC1CCCC1 (stereo not drawn)	0	11	-9	-2	-10	i	0	4
CCCC(C)n1[nH]c(=O)c2c(C)cc(C)nc21 (stereo not drawn)	-14	-4	6	nt	-1	i	10	7
CCc1ccc(N(CC(=O)N2CCN(Cc3ccccc3)CC2)S(C)(=O)=O)cc1	4	-14	-22	8	-2	i	2	-5
CCC/C(O)=C1\C(=O)CCCC1=NCCc1ccc(OCC)c(OCC)c1	39	-13	nt	8	3	i	0	0
CC(=O)NCCn1c(SCc2cc(=O)n3cc(Cl)ccc3n2)nc2ccccc2c1=O	-1	-11	-15	-19	-2	i	-3	-3
C=CCn1c(C(CCCC)CC(O)COCCC)n[nH]c1=S (stereo not drawn)	4	-21	nt	1	1	i	-5	1
Cc1cc(=O)n2nc(N3CCCC(C(=O)NC4CCC(C)CC4)C3)sc2n1 (stereo not drawn)	14	5	-7	-3	-14	i	0	0
COc1ccc(/C=C(\C#N)C(=O)Nc2cccnc2)cc1	0	-4	nt	-15	2	i	5	10
COC(=O)CCC(=O)OC1(C)C(=O)C2=CN(c3ccccc3)C(c3ccc(OC)cc3)=CC2=C(Br)C1=O (stereo not drawn)	nt	-8	-15	3	nt	i	-7	8
Clc1ccc2noc(-c3ccccc3)c2c1	17	-3	-20	nt	2	i	-3	-3
O=C1NC(Nc2nccs2)(C(F)(F)F)C(=O)N1CCc1ccccc1 (stereo not drawn)	-1	7	-8	nt	0	i	1	2
Cc1ccccc1-c1cnc(C(O)c2c(C)cccc2C)[nH]1 (stereo not drawn)	nt	nt	-26	-19	nt	nt	-8	0
O=C(CCNC(=O)c1ccccc1Cl)Nc1cc(C(F)(F)F)ccc1N1CCCC1	-1	-2	-18	35	-2	i	1	-19
CCOc1ccc(S(=O)(=O)N2CCN(C(=O)C3CCC3)CC2)cc1	nt	-8	nt	-3	nt	i	2	-6
Cc1cccc2cc(CN(CCCO)C(=O)Nc3ccccc3Cl)c(=O)[nH]c12	4	-17	3	nt	-9	i	0	4
Cc1cc(N2CCCC2)ccc1/C=C1/C(=O)N(C)C(=S)N1C	11	-5	-7	-145	81	i	-113	5	eIF4H inh retest=-5;PABP polyA inh retest=12
COc1ccc(C2(CNC(=O)c3ccc(C)cc3)CCOCC2)cc1	1	-11	-2	-25	1	i	3	2
